KCNQ2 inh = KCNQ2 potassium channel inhibitors, primary screen, cell-based, CHO-K1, FluxOR thallium flux, B-score (AID 2156). B-score at 10 µM. 1.1% of 310,000 active. O88943. 20 min; hits give low values; only compounds with negative scores are shown here; some inactives read as strong as hits;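 active = fluorescence ratio B-score at most minus 3 library SDs, with starting brightness B-score within 2 library SDs, cut at about -5.5 in these data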
Target sequence (O88943 whole entry, looked up): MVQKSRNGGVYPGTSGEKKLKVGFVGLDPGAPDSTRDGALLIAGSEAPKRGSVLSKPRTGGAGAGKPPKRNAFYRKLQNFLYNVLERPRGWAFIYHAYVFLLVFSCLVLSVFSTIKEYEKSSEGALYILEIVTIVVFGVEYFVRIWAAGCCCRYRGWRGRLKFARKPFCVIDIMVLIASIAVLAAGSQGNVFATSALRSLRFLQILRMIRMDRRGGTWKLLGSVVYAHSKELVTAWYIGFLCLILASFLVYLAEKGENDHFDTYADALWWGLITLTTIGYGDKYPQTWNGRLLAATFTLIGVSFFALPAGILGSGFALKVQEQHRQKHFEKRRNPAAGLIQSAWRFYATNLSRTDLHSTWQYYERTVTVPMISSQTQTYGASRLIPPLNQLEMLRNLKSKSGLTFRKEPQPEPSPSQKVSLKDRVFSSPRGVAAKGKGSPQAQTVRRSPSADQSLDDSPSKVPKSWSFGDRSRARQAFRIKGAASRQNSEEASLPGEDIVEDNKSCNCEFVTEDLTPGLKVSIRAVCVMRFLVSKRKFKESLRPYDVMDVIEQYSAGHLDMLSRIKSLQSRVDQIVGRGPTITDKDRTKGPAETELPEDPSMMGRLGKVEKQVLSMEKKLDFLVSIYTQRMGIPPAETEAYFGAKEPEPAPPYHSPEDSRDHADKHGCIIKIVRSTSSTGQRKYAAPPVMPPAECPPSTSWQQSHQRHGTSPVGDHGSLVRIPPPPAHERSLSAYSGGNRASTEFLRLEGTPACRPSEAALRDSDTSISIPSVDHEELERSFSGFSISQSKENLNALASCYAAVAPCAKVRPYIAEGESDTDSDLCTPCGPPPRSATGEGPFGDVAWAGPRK
KCNQ2 inh baseline = also measured in KCNQ2 inh; calls as there; B-score; measured here: initial fluorescence intensity artifact check;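 brightness before thallium and not channel activity; 0 = typical well and far values either way flag optical interference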
Numbers without * were called inactive; i = inactive.

Below each compound – KCNQ2 inh | KCNQ2 inh baseline
1. CC(C)NC(=O)c1onc(CSc2ccc(F)cc2)c1C(=O)O
    i | 0.26
2. CC(CCc1ccccc1)NC(=O)C1CCN(c2nnc(-n3cccc3)s2)CC1 (stereo not drawn)
    i | 1.42
3. O=C(C1CCC1)N1CCN(c2ccc(C(F)(F)F)cc2[N+](=O)[O-])CC1
    i | 0.01
4. O=C(Nc1cnc2ccccc2c1)N1CCOCC1
    i | -0.89
5. O=Nc1c(-c2c(O)[nH]c3cc(Br)ccc23)[nH]c2ccccc12
    i | 0.61
6. COC(=O)c1ccc(=O)n(Cc2ccc3c(c2)OCO3)c1
    i | -0.07
7. CCOC(=O)CSc1nn(C)c(=S)s1
    i | 0.66
8. CCNC(=S)N(CCc1ccccc1C)Cc1cc2cc(OC)c(OC)cc2[nH]c1=O
    i | -0.88
9. CSc1cccc(NC(=S)N(Cc2ccccc2)Cc2ccccn2)c1
    i | 2.48
10. CC(=O)N1CCCN(Cc2cn(-c3cccc(C)c3)nc2-c2cccc(F)c2)CC1
    i | 0.07
11. O=C(CN1CCSc2ccccc21)NCCCc1ccccc1
    i | 0.72
12. O=C(CSc1nnc(-c2cccs2)o1)N1CCCCC1
    i | -0.16
13. Cc1ccccc1NC(=O)COC(=O)CCc1nc2ccccc2c(=O)[nH]1
    i | 1.5
14. CC(=O)[C@@]1(O)C(C)CC2C3C=C(C)C4=Cc5c(cnn5-c5ccccc5)C[C@]4(C)C3C(O)C[C@@]21C (stereo partly drawn)
    i | -0.03
15. Cc1ccsc1/C=N/n1c(-c2cc(-c3ccccc3)n[nH]2)n[nH]c1=S
    i | -0.01
16. CCOC(=O)c1cnc2ccccc2c1NCc1ccco1
    i | 0.15
17. Cc1cccc(-c2cc(C(=O)N3CCCc4ccccc43)c3ccccc3n2)c1
    -6.83* | 0.11*
18. Cc1c(C(=O)Nc2ccc(C(=O)Nc3ccccc3)cc2)cccc1[N+](=O)[O-]
    i | 0.31
19. COc1ccc2[nH]c(C)c(CCNC(=S)Nc3ccc(C)cc3)c2c1
    i | 0.22
20. O=S(=O)(c1cccc2cccnc12)N1CCc2ccccc21
    i | 0.44
21. CCN(c1ccccc1)S(=O)(=O)c1nnc(NC(=O)c2ccccc2OC)s1
    i | 3.63
22. CC(=O)Nc1ccc(/C=N/Nc2nncc3ccccc23)cc1
    i | 0.7
23. N#C/C(=C\c1ccc(O)c(O)c1)C(=O)NCCCc1ccccc1
    i | -1.75
24. CCN(CC)c1ccc(/C=C2\CCC(/C=N/NC(=O)c3ccc(=O)n(C)c3)=C2N2CCOCC2)cc1
    i | 2.15
25. Cc1ccc(Cl)cc1N1CCN(S(=O)(=O)N2CCCCC2)CC1
    i | 1.5
26. Cc1cccc(N2CCN(C(=O)C3(S(=O)(=O)c4ccc(Cl)cc4)CC3)CC2)c1C
    -6.25* | 1.44*
27. COc1ccccc1NC(=O)/C(=N/OCc1ccc(C#N)cc1)C(C)=O
    i | 0.82
28. COc1ccc(C)cc1NC(=O)c1ccc(CN2CCc3ccccc3C2)cc1
    i | 1.3
29. COC(=O)c1ccc(-c2ccc(OC)c([C@H]3[C@H]4C=CC[C@@H](C)[C@@H]4C(=O)N3Cc3ccccc3)c2)cc1
    i | 0.98
30. CCCc1cc(=O)oc2c(C)c(OCC(=O)NCCCn3ccnc3)ccc12
    i | 2.71

Values by screen from above:
KCNQ2 inh for nos. 5–9 → i, i, i, i, i
KCNQ2 inh baseline for nos. 5–9 → 0.61, -0.07, 0.66, -0.88, 2.48

Returning to the listing; the three compounds before the break are reprinted first.
Below each compound – KCNQ2 inh | KCNQ2 inh baseline
28. COc1ccc(C)cc1NC(=O)c1ccc(CN2CCc3ccccc3C2)cc1
    i | 1.3
29. COC(=O)c1ccc(-c2ccc(OC)c([C@H]3[C@H]4C=CC[C@@H](C)[C@@H]4C(=O)N3Cc3ccccc3)c2)cc1
    i | 0.98
30. CCCc1cc(=O)oc2c(C)c(OCC(=O)NCCCn3ccnc3)ccc12
    i | 2.71
31. CCN1CCN(C(c2cc(OC)ccc2OC)c2nnnn2Cc2ccccc2)CC1 (stereo not drawn)
    i | 0.15
32. CCc1ccc(NC(=O)C(NS(=O)(=O)c2ccc3c(c2)CCN3C(C)=O)C(C)C)cc1 (stereo not drawn)
    i | -0.01
33. CCOC(=O)c1ccccc1NC(=O)CN(c1ccccc1OCC)S(C)(=O)=O
    i | 1.18
34. O=C(O)c1cnc2[nH]c3ccccc3n2c1=O
    i | -0.62
35. Cc1ccc(-c2nnc(SCC(=O)Nc3ccccc3N3CCOCC3)o2)cc1
    i | 0.59
36. O=C(O)c1ccc(/C=N/n2cc(-c3ccccc3)[nH]c2=S)cc1
    i | 1.19
37. O=C(CC(Sc1ccc(Br)cc1)C(=O)O)c1ccc(F)cc1 (stereo not drawn)
    i | 1.81
38. O=C(NCc1n[nH]c(=S)n1-c1ccc(Br)cc1)c1ccc(S(=O)(=O)N2CCCC2)cc1
    i | 0.96
39. CC1=C(C(=O)Nc2ccccc2Cl)C(c2ccc(N(C)C)cc2)NC(=O)N1 (stereo not drawn)
    i | 1.89
40. CC1CCCC(C)N1C(=O)CN1CCN(c2nc(-c3ccc(F)cc3)cs2)CC1 (stereo not drawn)
    i | -0.76
41. Cc1ccc2sc(NC(=O)CN3C(=O)CCC3=O)nc2c1C
    i | -1.87
42. O=C(CN1C(=O)CSc2ncccc21)NCCN1CCOCC1
    i | 1.85
43. Cc1ccc([N+](=O)[O-])cc1NC(=O)c1cccnc1
    i | 0.31
44. Cn1cnnc1SCC(=O)Nc1ccc(OCc2ccccc2)cc1
    i | 2.25
45. Cc1nc2cc(C(F)(F)F)ccc2n1C1CCN(CC(=O)NC(C)(C)C)CC1
    i | 2.09
46. O=C(C(=O)N1CCOCC1)c1c[nH]c2ccccc12
    i | 1.6
47. O=C(c1cc(-c2ccccc2Cl)nc2ccccc12)N1CCN(c2ccccc2O)CC1
    i | 0.75
48. O=c1cc(O)c2sc3nc(-c4ccccc4)cc(C(F)(F)F)c3c2[nH]1
    i | 0.47
49. CCOC(=O)c1cc(C#N)c(Oc2ccc(F)cc2)nc1-c1ccccc1
    i | 0.44
50. O=C(CSc1nc2ccccc2o1)Nc1nc(-c2ccccc2)cs1
    i | 0.14
51. O=C1NC2=C(C(=O)CCC2)C(c2ccccc2)N1 (stereo not drawn)
    i | 0.37
52. Cc1n[nH]c(C)c1S(=O)(=O)N1CCc2ccccc21
    i | 0.03
53. COc1ccc(C(=O)Nc2ccccc2C(=O)NCc2cccnc2)cc1OC
    i | 1.74
54. COc1ccc(N2CCN(C(=O)c3ccc(CS(=O)(=O)c4ccccc4C)o3)CC2)cc1
    i | 0.14
55. Cc1oc(-c2nc3ccccc3n2C)cc1C(=O)c1ccccc1
    -6.62* | -0.6*
56. Cc1ccc(S(=O)(=O)c2nnn3c2nc(N2CCOCC2)c2ccccc23)cc1
    i | -0.01
57. CC1CCN(c2ccc3nnc(CCC(=O)NCc4ccco4)n3n2)CC1
    i | -0.01
58. O=C(NCc1ccccc1)c1ccc2nc(-c3ccco3)c(-c3ccco3)nc2c1
    i | -1.21
59. CCCCN(C(=O)c1cc2c(s1)CCC2)c1c(N)n(CCCC)c(=O)[nH]c1=O
    i | 0.02
60. CC(C)c1[nH]nc2c1C(c1cccs1)C(C#N)=C(N)O2 (stereo not drawn)
    i | 1.23

One compound at a time (already shown).
CCOC(=O)c1ccccc1NC(=O)CN(c1ccccc1OCC)S(C)(=O)=O across the screens: KCNQ2 inh = i; KCNQ2 inh baseline = 1.18
CCOC(=O)c1cc(C#N)c(Oc2ccc(F)cc2)nc1-c1ccccc1 across the screens: KCNQ2 inh = i; KCNQ2 inh baseline = 0.44
O=C(NCc1n[nH]c(=S)n1-c1ccc(Br)cc1)c1ccc(S(=O)(=O)N2CCCC2)cc1 across the screens: KCNQ2 inh = i; KCNQ2 inh baseline = 0.96

(list continues)
Below each compound – KCNQ2 inh | KCNQ2 inh baseline
61. CCCCCCCCCCCCN1[C@@H](CC(=O)OC)c2cc(F)cc(F)c2S1(=O)=O
    i | -0.39
62. CCOc1ccc(-c2cc(C(=O)NN=C3CCN(C)CC3)[nH]n2)cc1
    i | 1.13
63. N#CC(C(=O)NC1CC1)c1nc2ccccc2nc1N1CCN(C/C=C/c2ccccc2)CC1 (stereo not drawn)
    i | 0.11
64. CCc1ccc2[nH]c(=O)c(C(c3nnnn3Cc3ccc(OC)cc3)N3CCOCC3)cc2c1 (stereo not drawn)
    i | -0.68
65. CN(C)CCNCCCOc1ccccc1-c1ccccc1
    i | 1.53
66. COc1cccc(CN2CCNC(=O)C2CC(=O)NC2Cc3ccccc3C2)c1 (stereo not drawn)
    i | -1.77
67. CC(=O)Nc1ccc(S(=O)(=O)Oc2ccc(C=O)cc2)cc1
    i | 0.79
68. FC(F)(F)c1cc(NC2CCCCC2)ccn1
    i | 0.54
69. CCC(C)NC(=O)C1CCN(S(=O)(=O)N2CCC3(CC2)OCCO3)CC1 (stereo not drawn)
    i | 1.05
70. CCCc1ccc2oc(C(=O)N3CCC(N4CCCC(O)C4)CC3)c(C)c2c1 (stereo not drawn)
    i | 0.29
71. COc1cccc(C(=O)NC(=S)Nc2ccc(Cl)cc2C(=O)O)c1
    i | -1.21
72. CCOC(=O)CSc1nnc([C@H](CC(C)C)NC(=O)OC(C)(C)C)o1
    i | -0.2
73. CSCCC(C(=O)N1C[C@]2(C)C[C@H]1CC(C)(C)C2)N1C(=O)c2ccccc2C1=O (stereo partly drawn)
    i | -0.37
74. CC1(C)Oc2ccc(C(=O)NN)cc2NC1=O
    i | 0.39
75. Oc1ccc(C[C@@H]2CNCCN2CCc2cccc3ccccc23)cc1
    i | -1.21
76. CCOC(=O)CCn1nnc(N)n1
    i | 0.04
77. Cc1ccc(Cn2ncc(C)c2N)o1
    i | 0.28
78. CCCc1cc(=O)[nH]c(SCc2csc(-c3ccccc3)n2)n1
    i | 0.64
79. COc1cc(C(=O)COC(=O)CNC(=O)C2CCCCC2)cc(OC)c1OC
    i | 0.07
80. CC(C)N(CCNCC(O)COc1ccc(C(C)(C)c2ccccc2)cc1)C(C)C (stereo not drawn)
    i | 1.02
81. O=c1c(Cl)c(N2CCC3(CC2)OCCO3)cnn1C12CC3CC(CC(C3)C1)C2
    i | 3.21
82. COc1ccccc1N1CCN(C(=O)C(C)CS(=O)(=O)c2ccc3c(c2)NC(=O)CS3)CC1 (stereo not drawn)
    i | 1.48
83. COc1ccccc1OCC(=O)NC1CCCc2ccccc21 (stereo not drawn)
    i | -0.4
84. COc1ccccc1NC(=O)NNC(=O)CCN1CCOCC1
    i | -0.96
85. O=C(CCC(=O)NNC(=O)Nc1ccc(Cl)cc1)NCc1ccccc1
    i | 0.61
86. Cc1ccc(N=C2SC(C(=O)O)CC(=O)N2C)cc1C (stereo not drawn)
    i | 1.28
87. CC(=C/c1ccccc1)/C=N/n1cnnc1
    i | 0.75
88. Cc1ccc(S(=O)(=O)N2CCC(C(=O)OC(C)C(=O)NCc3ccccc3)CC2)cc1C (stereo not drawn)
    i | -1.26
89. O=C(O)C(Oc1ccc2c(-c3ccccc3)cc(=O)oc2c1)c1ccccc1 (stereo not drawn)
    i | -1.67
90. Cc1ccc(/C=C2\SC(=S)N(CCC(=O)NCCCN3CCOCC3)C2=O)cc1
    i | 1.58

Additional entries.
Below each compound – KCNQ2 inh | KCNQ2 inh baseline
91. c1ccc2c(c1)OCCOCCOCCOCCOc1ccccc1OCCOCCOCCO2
    i | 1.77
92. COc1ccc(NC(=O)N2CCN(CCC#N)CC2)cc1
    i | 1.9
93. CC(C)(C)n1nnnc1C(c1ccc2ncccc2c1)N1CCSCC1 (stereo not drawn)
    i | 0.07
94. COC(=O)C1=C(N)Oc2cc(C)[nH]c(=O)c2C1c1cccnc1 (stereo not drawn)
    i | 0.82
95. CC1=[N+](C)N(c2ccccc2)C(=O)C1N=Cc1c(Cl)cccc1Cl (stereo not drawn)
    i | 0.52
96. CCOC(=O)c1sc(NC(=O)C2CC2)nc1C
    i | 0.44
97. O=C(CCc1c[nH]c2ccccc12)NCc1ccc2c(c1)OCO2
    i | 0.9
98. O=C1CCC([N+](=O)[O-])C(c2ccc(C(F)(F)F)cc2)N1 (stereo not drawn)
    i | 1.38
99. O=C(Nn1c(=S)[nH]c2ccccc2c1=O)c1ccncc1
    i | -0.47
100. Cc1ccc(-c2nn3nnnc3c3ccccc23)cc1C
    i | -0.05
101. Clc1ccc(CN2CCN(/N=C/c3cccnc3)CC2)cc1
    i | -0.05
102. CCOC(=O)c1cnc(SCc2cccc3ccccc23)nc1N
    i | 0.1
103. Cc1ccnc(NS(=O)(=O)c2ccc(NC(=O)c3ccc(S(=O)(=O)N4CCOCC4)cc3)cc2)n1
    i | -0.1
104. CC(C)C(C(=O)NCC1CCCO1)N(Cc1cccs1)C(=O)CNS(=O)(=O)c1ccccc1 (stereo not drawn)
    i | -0.44
105. CC1CN(c2nc(Nc3ccccc3)nc(N)c2[N+](=O)[O-])CC(C)O1 (stereo not drawn)
    i | -0.62
106. CN(Cc1ccccc1)CC(O)COc1ccc(CNCc2cc3ccccc3s2)cc1 (stereo not drawn)
    i | 2.29
107. O=C(Nc1ccc(NC(=O)c2ccccc2F)cn1)c1ccco1
    i | -1.08
108. COc1cc(S(=O)(=O)N2CCN(c3ccccc3)CC2)ccc1F
    i | 0.54
109. CCCCC(c1nnnn1C1CCCC1)N1CCN(C(=O)c2ccco2)CC1 (stereo not drawn)
    i | -1.76
110. Nc1nncn1C(=O)CCc1ccccc1
    i | 2.61
111. CCCCC(=O)Nc1cccc(C(C)O)c1 (stereo not drawn)
    i | 0.96
112. O=c1c2ccccc2sn1-c1ccccc1
    i | 0.62
113. CC(C)CNC(=O)C1CCCN(C(=O)NCc2ccccc2)C1 (stereo not drawn)
    i | 0.54
114. O=C(N/N=C\c1ccc(COc2ccc([N+](=O)[O-])cc2)o1)c1ccc(Cl)cc1
    i | -0.03
115. CCOC(=O)Cc1csc(NC(=O)c2c(-c3c(Cl)cccc3Cl)noc2C)n1
    i | 0.69
116. S=C1CSc2ccccc2N1
    i | -0.87
117. CC(=O)c1c(C)[nH]c(C(=O)O)c1C
    i | 0.9

A portion of the library; count on the stated rates, not on these rows.
